TRPML1 agonist: human mucolipin-1 channel agonism; hit rate 0.12% among 410,000; Q9GZU1; AID 624414; TRPML1-expressing cells, Ca2+ dye fluorescence, FDSS; host cell line not named in the record; reference of the full effect not given here; activation, % (test concentration not listed); in the data active = activation above about 50%; inconclusive = about 30% to 50%; inactive = below about 30%; note: 0% is about no effect; the text of the record puts the active cut at 80%
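Calcium fluorescence on an FDSS kinetic reader gave the read-out. Tet-induced TRPML1-DL cells were plated overnight, dye-loaded (Ca8 with quencher, 45-90 min, room temperature, dark), then read 110 s after compound addition, and again 110 s after 4uM final 54-4 (EC80).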
TRPML1 inh: blocks the human TRPML1 channel; Q9GZU1; TRPML1-inducible cells, Ca2+ dye fluorescence, FDSS; stronger effect = lower value; inhibition of EC80 agonist-evoked calcium signal; activity change, negative = inhibition, % (concentration not given with the values); hit rate 0.02% among 390,000; AID 624415; in the data active means activity change below about -50%; inconclusive means about -30% to -50%; inactive means above about -30%;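 note: stimulus is agonist 54-4 at its EC80 concentration; % is set by controls: 0 for no effect and ±100 for the full control effect; compound concentration not given in the record; the text of the record puts the active cut at -80%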
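Calcium fluorescence in TRPML1-DL cells induced overnight with Tet: a 110 s read after compound pin addition, then a 110 s antagonist read after challenge with 54-4 at 4 uM final (EC80).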
TRPV1 PAM: human TRPV1 potentiation; Q8NER1; TRPV1-expressing cells, Fluo-8 calcium influx, capsaicin EC20 potentiation; host cell line not named in the record; control for the full effect not named in the record; potentiation, % at 8.33 µM; hit rate 0.02% among 320,000; active means potentiation above 80%; inconclusive means 30% to 80%; inactive means below 30%; note: 0% is about no effect
Target sequence (Q8NER1 whole entry, looked up): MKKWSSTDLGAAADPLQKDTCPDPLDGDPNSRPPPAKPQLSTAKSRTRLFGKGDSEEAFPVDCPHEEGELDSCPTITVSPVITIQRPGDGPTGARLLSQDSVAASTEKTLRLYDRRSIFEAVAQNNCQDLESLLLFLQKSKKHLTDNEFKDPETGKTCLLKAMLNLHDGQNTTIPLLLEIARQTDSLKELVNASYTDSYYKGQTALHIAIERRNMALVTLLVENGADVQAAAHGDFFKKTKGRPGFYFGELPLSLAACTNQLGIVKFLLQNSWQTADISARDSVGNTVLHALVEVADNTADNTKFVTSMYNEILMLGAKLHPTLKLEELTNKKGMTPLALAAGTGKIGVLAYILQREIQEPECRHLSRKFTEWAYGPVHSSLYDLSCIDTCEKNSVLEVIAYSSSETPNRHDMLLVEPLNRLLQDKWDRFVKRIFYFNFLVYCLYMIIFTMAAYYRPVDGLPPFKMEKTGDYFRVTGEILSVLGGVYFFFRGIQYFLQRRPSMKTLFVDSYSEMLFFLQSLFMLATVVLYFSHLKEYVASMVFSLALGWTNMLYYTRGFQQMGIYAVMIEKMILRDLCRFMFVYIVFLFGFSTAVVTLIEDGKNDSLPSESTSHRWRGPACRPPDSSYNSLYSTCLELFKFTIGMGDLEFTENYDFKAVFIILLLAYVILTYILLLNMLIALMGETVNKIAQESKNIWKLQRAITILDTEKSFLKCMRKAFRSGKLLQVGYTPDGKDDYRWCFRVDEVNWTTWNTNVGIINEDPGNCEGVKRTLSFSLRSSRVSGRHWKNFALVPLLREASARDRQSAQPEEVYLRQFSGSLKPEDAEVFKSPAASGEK
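Fluo-8 calcium influx in TRPV1-expressing cells, kinetic read (ex 480/em 520 nm). Compound added and read 3 min for agonist activity, followed by capsaicin at EC20 final and 2 min further read for enhancement.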
CtBP-E1A blk: inhibitors of CtBP/E1A interaction; AlphaScreen GST-E1A/His-CtBP binding, 1536-well; stronger effect = lower value; control for the full effect not named in the record; activity change, % (test concentration not listed); hit rate 0.49% among 340,000; AID 651724; in the data active means activity change below about -65%; inconclusive means about -30% to -65%; inactive means above about -30%; note: % is set by controls: 0 for no effect and ±100 for the full control effect; compound concentration not given in the record
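Steps: dispense buffer (Tris pH 8.0, NaCl 300 mM, TCEP 1 mM, BSA, Tween 20); add 5X protein mix (GST-E1A, His-CtBP, 125 nM each); pin 23 nL compound; 2 h at 37 °C, dark; add 5X beads (50 ug/mL); 1 h; read.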
Six1-Eya2 inh: Six1/Eya2 interaction inhibition; hit rate 0.56% among 360,000; AID 651725; activity change, % (concentration not given with the values); Q15475+O00167; AlphaScreen GST-Six1/His-Eya2 binding, biochemical; stronger effect = lower value; control for the full effect not named in the record; in the data active = activity change below about -65%; inconclusive = about -30% to -65%; inactive = above about -30%; note: % is set by controls: 0 for no effect and ±100 for the full control effect
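Six1/Eya2 binding was read as AlphaScreen signal after compounds were pinned into GST-Six1 plus His-tagged Eya2 (5X stock 250/500 nM) in pH 8.0 Tris/NaCl/TCEP buffer, beads added, then incubated 1 h, 37 C, dark.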
D2 PAM: human D2 receptor positive allosteric modulation. P14416. DiscoveRx D2 beta-arrestin cells, luminescence, 90 min; 100% = 57 uM dopamine signal. potentiation, % (test concentration not listed). hit rate 0.23% among 360,000. AID 624464; active = potentiation of 50% or more; inconclusive = 30% to 50%; inactive = 30% or less;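 note: compound concentration not given in the record; tested on top of an EC20 dose of dopamine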
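PathHunter beta-arrestin assay in DiscoveRx D2 cells. Compounds were added with an EC20 of dopamine (50 nM final) for 90 min at 37 deg C. Luminescence was read 1 h after detection reagent, with 57 uM dopamine as the EC100 control.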
* hit, by the source's call; ? = inconclusive; . = no result given.

The first 4 compounds as a preview:
SMILES | TRPML1 agonist | TRPML1 inh | TRPV1 PAM | CtBP-E1A blk | Six1-Eya2 inh | D2 PAM
Cc1cc(N2CCCN(C)CC2)nc2cc(Cl)ccc12 | -0.5 | 0 | -4 | -3 | -4 | -21
CCN(CCCn1c(=S)[nH]c2ccc(N3CCOCC3)cc2c1=O)c1ccccc1 | -1.2 | 13 | -20 | -7 | 5 | -2
CC(OC(=O)c1ccc(OCC2CCCO2)cc1)C(=O)N(C)Cc1ccccc1 (stereo unspecified) | 0.1 | 19 | 8 | 3 | -6 | -7
COc1ccc(-c2nc(=S)[nH][nH]2)cc1OC | 0.5 | 18 | 8 | . | 0 | -7

The list itself, repeating the preview:
SMILES | TRPML1 agonist | TRPML1 inh | TRPV1 PAM | CtBP-E1A blk | Six1-Eya2 inh | D2 PAM
Cc1cc(N2CCCN(C)CC2)nc2cc(Cl)ccc12 | -0.5 | 0 | -4 | -3 | -4 | -21
CCN(CCCn1c(=S)[nH]c2ccc(N3CCOCC3)cc2c1=O)c1ccccc1 | -1.2 | 13 | -20 | -7 | 5 | -2
CC(OC(=O)c1ccc(OCC2CCCO2)cc1)C(=O)N(C)Cc1ccccc1 (stereo unspecified) | 0.1 | 19 | 8 | 3 | -6 | -7
COc1ccc(-c2nc(=S)[nH][nH]2)cc1OC | 0.5 | 18 | 8 | . | 0 | -7
Oc1cccc(C2c3[nH]c4ccccc4c3CCN2Cc2cnn(-c3ccccc3)c2)c1 (stereo unspecified) | -0.1 | 13 | 3 | -20 | -7 | -13
CC1CCCN(C(=O)c2ccc(Br)c(S(=O)(=O)N3CCOCC3)c2)C1 (stereo unspecified) | 0.4 | 14 | -7 | 4 | 7 | -1
CCc1cc2c(SCC(=O)NCC3CCCO3)ncnc2s1 (stereo unspecified) | 0.0 | 8 | 8 | 9 | -3 | 2
COc1cc(C(=O)N/C(=C\c2cn(S(=O)(=O)N(C)C)c3ccccc23)C(=O)NCCCO)cc(OC)c1OC | -0.4 | -13 | 6 | 9 | 1 | -3
CCN(CC)S(=O)(=O)c1ccc2[nH]cc(C(=O)NCCN3CCCCCC3)c(=O)c2c1 | -0.1 | 3 | 4 | -22 | -3 | -20
COc1cc(C(=S)N2CCOCC2)ccc1OC(=O)c1cc([N+](=O)[O-])cc([N+](=O)[O-])c1 | 0.0 | -2 | 2 | -12 | 12 | 16
CN(C(=O)COC(=O)c1cc2ccccc2oc1=O)C1CCCCC1 | 1.6 | 1 | . | 2 | 4 | -1
Cc1ccc(S(N)(=O)=O)c(C)c1-n1cnnn1 | -0.4 | 3 | 6 | . | 14 | -4
O=C1C2C3C=CC(C2C(=O)N1C1CCCCC1)C1C(=O)N(C2CCCCC2)C(=O)C31 (stereo unspecified) | 0.1 | -13 | 21 | 7 | 1 | 13
COC(=O)C1(C)CCc2c(ccc3ccccc23)C1=O (stereo unspecified) | -1.3 | . | . | 11 | 8 | -4
CC12CCC(C(=O)Nc3ccccc3Cl)([C@H](Br)C1=O)C2(C)C (stereo partly specified) | 1.6 | -4 | -12 | 6 | 1 | -9
Cc1ccc(NC(=O)c2ocnc2C)cc1Cl | 2.1 | 9 | -14 | -16 | -1 | -10
Cc1ccccc1NC(=O)CN1C(=O)CSc2ccccc21 | -0.5 | -2 | 3 | 9 | -2 | -2
Brc1cccc(-c2nnc(SCc3nc4ccccc4[nH]3)o2)c1 | 3.6 | 7 | 4 | 11 | 1 | -6
O=C(c1nn2c(C(F)(F)F)cc(-c3cccs3)nc2c1Cl)N1CCCc2ccccc21 | 1.4 | -2 | 0 | -6 | -1 | -14
O=C(NCc1ccco1)C1CCCN(S(=O)(=O)c2cccc3cccnc23)C1 (stereo unspecified) | -0.2 | -8 | . | 0 | -5 | -2

3 entries from above, ordered by the value under Six1-Eya2 inh, falling.
Compound	TRPML1 inh	CtBP-E1A blk	Six1-Eya2 inh	D2 PAM
Cc1ccc(S(N)(=O)=O)c(C)c1-n1cnnn1	3	.	14	-4
COc1cc(C(=S)N2CCOCC2)ccc1OC(=O)c1cc([N+](=O)[O-])cc([N+](=O)[O-])c1	-2	-12	12	16
COC(=O)C1(C)CCc2c(ccc3ccccc23)C1=O (stereo unspecified)	.	11	8	-4

Additional records
SMILES | TRPML1 agonist | TRPML1 inh | TRPV1 PAM | CtBP-E1A blk | Six1-Eya2 inh | D2 PAM
O=C(CC1C[C@H](C(=O)N2CCOCC2)[C@@]2(CCC3CCCC3)c3[nH]c4ccccc4c3CCN2C1=O)NCCN1CCOCC1 (stereo partly specified) | -0.4 | 8 | . | 2 | -1 | .
O=S(=O)(NC1C2CC3CC(C2)CC1C3)c1ccc(F)cc1 (stereo unspecified) | 0.6 | 26 | -5 | 2 | -3 | 13
COc1cc(OC)cc(OC(=O)C2CCN(C3=NS(=O)(=O)c4ccccc43)CC2)c1 | 0.0 | -2 | -2 | . | -25 | -3
CCOc1cc2oc(=O)c3c(c2cc1Cl)CCC3 | 0.2 | 19 | 22 | 1 | 3 | -10
COc1ccc(N=CC2=C(O)CC(C)(C)CC2=O)cc1OC | -0.8 | -4 | -4 | 1 | 2 | -11
COc1ccc(-c2noc(-c3ccccc3Cl)n2)cc1OC | 2.1 | 7 | -2 | 26 | 11 | 0
Cc1[nH]c2ccc(F)cc2c1CCN(Cc1ccncc1)C(=S)Nc1ccc(F)cc1 | -0.2 | 4 | ? | 0 | -11 | -12
CCC(C(=O)NCCC(C)C)N(Cc1ccccc1Cl)C(=O)c1snc(C(N)=O)c1N (stereo unspecified) | 2.8 | -6 | 5 | 0 | 0 | -3
COc1ccc([C@H]2N[C@]3(CCCN(Cc4ccccc4)C3=O)[C@H]3C(=O)N(Cc4ccccc4)C(=O)[C@@H]23)cc1 | -0.1 | 47 | . | -12 | -4 | -5
COc1cccc(NC(=O)CN(C)C(=O)CSc2ncnc3sc(C)c(C)c23)c1 | -0.9 | 6 | -12 | -1 | -6 | -17
O=c1[nH]c2cc(Cl)ccc2n1-c1ccccc1 | 1.4 | -4 | 17 | 3 | 2 | -9
O=C(Cn1nc(Cc2cccnc2)c2ccccc2c1=O)N1CCN(c2ccccn2)CC1 | 0.0 | -10 | . | -2 | 1 | -6
Oc1ccc2ccccc2c1N=Nc1nccs1 | 2.6 | 8 | 4 | -94* | -81* | 3
C/C(=N\NC(=O)c1ccc2ccccc2c1)c1cccs1 | 1.6 | -7 | -7 | 3 | 8 | -27
CCOC(=O)c1ccc(NC(=O)Nc2ccc(Cl)cn2)cc1 | -0.7 | 0 | -9 | 11 | 14 | -7
COc1ccc(-c2cc(C(=O)N3CCC3)c3ccccc3n2)cc1OC | -0.7 | 13 | 3 | -4 | -4 | ?
CCOc1cc(NC(=S)NCCOC)c(OCC)cc1NC(=O)c1ccco1 | 1.8 | 14 | -3 | -3 | -2 | 0
CC(=O)N1CCN=C1SCc1cccc(C)c1 | 1.2 | 0 | 0 | . | 5 | -5
COc1ccccc1C(=O)Nc1nc(N)n(-c2ccccc2)n1 | -0.2 | 4 | 0 | 0 | -4 | -25
CC(=O)c1ccc(NC(=O)CN(c2c(C)cccc2C)S(C)(=O)=O)cc1 | -0.4 | 22 | 6 | . | 2 | -5
CC(C)CNC(=O)c1cc([N+](=O)[O-])ccc1N1CCCCC1 | 4.6 | 0 | -7 | . | 4 | -8
O=C(NCc1ccco1)c1ccc(OCC2CCCO2)cc1 (stereo unspecified) | -0.5 | -2 | -11 | 11 | 0 | -18
COc1ccc(NC(=O)C(C)Oc2ccc(/C(C)=N\O)cc2)cc1 (stereo unspecified) | 4.8 | 6 | -6 | -2 | -1 | -13
COc1ccc(NC(=O)CSc2ccc3nnc(-c4ccccn4)n3n2)c(OC)c1 | -0.5 | 5 | 17 | ? | ? | 3
CC(C)(C)OC(=O)N[C@H]1C=C[C@@H](OC(=O)CC(=O)OCC(F)(F)F)C1 | -0.8 | 1 | . | 5 | 2 | .
Cc1cccc(NC(=O)Nc2c(C)n(C)n(-c3ccccc3)c2=O)c1C | -0.2 | -2 | 5 | 7 | -3 | 1
CCOCCCn1c(=N)c(C(N)=S)cc2c(=O)n3cccc(C)c3nc21 | -0.6 | 53 | -10 | -29 | -22 | -17
CC(C)(O)C(=O)NNC(=S)Nc1ccc(F)c(Cl)c1 | 0.6 | 2 | 2 | 15 | 4 | -16
CCOC(=O)/C(=N/Nc1ccccc1)Sc1nnnn1-c1ccc(C)cc1 | -0.3 | 1 | 25 | -5 | 11 | -13
O=S(=O)(c1cc(F)ccc1F)N1CCC2(CC1)OCCN2S(=O)(=O)c1cccs1 | -0.2 | -12 | -3 | 5 | -3 | 12
CC(C)C(=O)Nc1c2c(nn1-c1ccccc1)CSC2 | 1.3 | -10 | 1 | . | 0 | -3
Cc1ccc(SCn2nnc3ccccc3c2=O)c(C)c1 | -0.3 | -6 | -9 | 32 | 17 | 8
COCCN(Cc1cc2cccc(C)c2n2nnnc12)C(=O)C(F)(F)F | 0.1 | 1 | -7 | 6 | 7 | -7
O=C(O)c1ccc(N/N=C/c2ccc(OC(=O)c3ccccc3Cl)cc2)cc1 | 0.2 | 0 | -2 | -18 | -17 | 1
c1cnc2ncc3sccc3c2c1 | 0.5 | -7 | -2 | -4 | -2 | 0
CCOC(=O)NC(NC(=O)OCC)C(=O)c1ccccc1 | -0.2 | -1 | 16 | 4 | 4 | -15
C=CCCC(=O)Nc1nc(C)c(-c2csc(Nc3ccc(Cl)cc3)n2)s1 | 0.9 | -17 | 7 | . | 1 | -14
CC(=O)Nc1cc2c(ccc3ccccc32)oc1=O | 0.2 | -9 | -8 | 12 | -1 | -2
CC1CCCCC1NCC#CCOc1ccc(Cl)cc1 (stereo unspecified) | 2.2 | 13 | 11 | . | 25 | ?
COc1cccc(C(=O)NCc2ccc(N3CCN(C(=O)OC(C)(C)C)CC3)cc2)c1 | 1.2 | 15 | 0 | 5 | 0 | 15
Cc1ccc(NC(=O)c2ccc(-n3cccn3)nc2)cc1 | 0.0 | 13 | -11 | 9 | 9 | -7
COc1ccc(OCCCC(=O)Nc2cc([N+](=O)[O-])ccc2C)cc1 | 0.9 | -4 | -20 | -2 | -1 | -33
CN(c1ccccc1)S(=O)(=O)c1ccc(NC(=O)c2ccc(-c3ccccc3)cc2)cc1 | -0.4 | -6 | -22 | 9 | -2 | -7
Cc1oc(-c2cccs2)nc1CN1CCC(CO)(CCOc2ccccc2)CC1 | 1.3 | 5 | -6 | -9 | -3 | -29
COc1cccc(OC)c1C(=O)NC(=S)NCc1cccnc1 | -0.2 | -4 | 8 | -9 | -5 | -29
O=C(CCNS(=O)(=O)c1ccc(F)c(F)c1)NCCN1CCOCC1 | -0.2 | -7 | . | . | 12 | -4
CCC(C)(C)n1nnnc1C(C(C)C)N1CCC(C(N)=O)CC1 (stereo unspecified) | 1.1 | 34 | 4 | 2 | -3 | -16
Cc1nc2sccc2c(=O)n1N | 3.0 | 16 | -1 | 7 | 8 | -5
COc1cc(NC(=O)C2COc3ccccc3O2)c(OC)cc1Cl (stereo unspecified) | 2.2 | 2 | . | -3 | -9 | -26
O=S(=O)(NCc1ccccc1)c1cccc2nsnc12 | -0.1 | -29 | 0 | 0 | 13 | -4
Cc1nc(SCC(=O)N2CCc3ccccc32)n[nH]1 | 0.0 | 4 | 1 | -2 | 8 | 2
Cc1nc2ncnn2c(C)c1CCC(=O)N1CC(C)CC(C)C1 (stereo unspecified) | 0.0 | 2 | 2 | 4 | 2 | 1

Screening data: PubChem BioAssay, National Center for Advancing Translational Sciences (NCATS)
